Assay outcomes as filed in PubChem.
Autofluor counter = flagged as autofluorescent in microsphere protease counterscreen. compound autofluorescence counterscreen, microsphere flow cytometry; hits give high values. fluorescence intensity (test concentration not listed). 360,000 tested, 3.1% active. AID 624483;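 active means at least 3 SD above the mean of all compounds, about 16000 in these data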;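 further: 100 nL of 1 mM stock went into each well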
Mtb hypoxia inh = inhibitors of hypoxia-regulated fluorescent reporter in Mycobacterium tuberculosis. M. tuberculosis hypoxia-regulated fluorescent reporter, fluorescence. fluorescence inhibition, % (no concentration beside the values). 300,000 tested, 0.1% active. AID 1159583;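 active means 35 to 45% if threefold the growth effect, above 45% if 1.5-fold the growth effect; inactive means the rest, general growth blockers included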;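 further: wells of about 50 µL received 100 nL stock; 0% = vehicle wells and 100% = reference inhibitor wells; whole bacteria with a GFP reporter of the hypoxia response; strong numbers were not always called active; many hits fall short of the cut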
BJeLR viability = kills HRASV12-expressing BJeLR cells. BJeLR (HRASV12) viability, CellTiter-Glo ATP luminescence, 48 h; reference of the scale not given here. 300,000 tested, 0.17% active. inhibition, % (no concentration beside the values);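 active means replicate mean above 50%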;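 further: 50 nL library stock added to about 25 µL; numbers are from one replicate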
RN4220 kill = kills Staphylococcus aureus RN4220; S. aureus RN4220 growth, OD600, 16 h; inhibition, % (no concentration beside the values); 330,000 tested, 0.33% active;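 active means z-score of -3 or lower and OD600 up to 0.18 on both plates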;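 further: plate controls were untreated cells for no effect and reference antibiotic for full effect; stock transfer was 100 nL into about 80 µL; one replicate is shown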
PrP 5UTR inh = inhibition of PrP 5' UTR reporter expression; cell-based PrP 5' UTR mRNA reporter, plate reader; inhibition, % (no concentration beside the values); 340,000 tested, 0.35% active; AID 488862;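 active means every replicate at 50% or more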;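 further: 0 = median of the neutral control wells; tested in H4 reporter cells; numbers are from one replicate; inactives centre near -14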
Sa ugtP lethal = compounds lethal to S. aureus RN4220 ugtP deletion mutant. 330,000 tested, 0.54% active. OD600 growth, 16 h; some inactives read as strong as hits. growth inhibition, % (concentration not given with the values). AID 1259309;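 active means z-score under -3 and OD600 up to 0.15 on both plates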;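 further: plate controls were untreated wells for no effect and antibiotic for full effect; wells of about 80 µL received 100 nL stock; the first replicate is given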
Mtb hypoxia inh growth = second read-out of Mtb hypoxia inh, no call of its own (marks repeat the call); growth inhibition, %; measured here: M. tuberculosis growth (absorbance);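 0% = vehicle and 100% = reference antibiotic; read after six days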
An asterisk follows results filed as active; · = not tested or not shown. An unsorted share of the library; about 4.1% have a hit in one of these screens.

SMILES	Autofluor counter	Mtb hypoxia inh	Mtb hypoxia inh growth	BJeLR viability	RN4220 kill	PrP 5UTR inh	Sa ugtP lethal
CC1CC(NC(=O)c2c(O)nc3sccn3c2=O)CC(C)(C)C1 (stereo unspecified)	5361	4.6	4.9	-3.9	3.5	0.8	19.5
CCc1ccc(C2CC=C(C(=O)O)CN2S(=O)(=O)c2ccc(C)cc2)cc1 (stereo unspecified)	·	0.7	-4.8	·	14.4	·	3.9
O=C(COC(=O)C1C2CC3OC(=O)C1C3C2)Nc1ccccc1 (stereo unspecified)	4217	2.7	-16.3	6.7	1.4	-15.4	6.3
Cc1ccc(-n2c(O)c(/C=N/NC(=O)c3ccncc3)c(=O)[nH]c2=O)cc1	2085	-8.4	-0.3	1.1	5.7	-14.1	4.9
O=C1C2C(C(=O)N1c1ccncc1)C1C=CC2C12CC2 (stereo unspecified)	3084	3.7	4.5	4.4	-0.1	-20.8	-6.6
OCCNc1nc(Nc2ccc(Cl)cc2)nc(N2CCCC2)n1	4160	0.5	7.2	-0.8	1.0	-2.5	5.4
COc1cc2c(cc1NC(=O)c1cccnc1)oc1ccccc12	2900	·	·	-1.6	·	-46.4	·
O=C(CCl)Nc1ccc(N=Nc2ccccc2)cc1	2925	1.5	12.0	-9.9	7.8	-30.8	-1.3
COc1ccccc1NCC(=O)c1ccc(Cl)cc1	5733	8.1	-1.5	3.3	1.1	-10.9	1.5
Cc1ccc2nc3sc(C(=O)NCc4ccco4)c(N)c3cc2c1	2999	13.2	3.3	-6.8	-10.3	-86.1	-15.7
COc1ccccc1CNC(=O)COC(=O)c1cc(=O)c2ccccc2o1	2818	3.4	7.6	·	0.0	0.0	3.5
Cc1cccc(-c2ocnc2C(=O)Nc2ccccc2C(=O)N2CCCC2)c1	3388	-6.2	4.1	-11.8	3.9	-21.8	3.1
COC(=O)CN(c1ccccn1)S(=O)(=O)c1ccccc1	3405	9.6	-0.9	-2.2	-0.6	-2.7	10.2
COC(=O)CCn1nc(-c2ccc(Cl)cc2)c2ccccc2c1=O	2093	7.2	10.4	-9.2	4.7	-27.3	11.7
CC(C)(C)c1ccc(/C=C/C(=O)N2CCc3ccccc3C2)cc1	6828	5.5	4.1	-3.1	-6.8	-11.1	57.0
COc1ccc(C(=O)CN2C(=O)NC(C)(c3ccc(C)cc3)C2=O)cc1OC (stereo unspecified)	3494	10.0	4.7	2.4	-9.1	-15.3	-4.4
COCOc1cc(O)c(C(=O)/C=C/c2ccccc2)c(OCOC)c1	4345	·	·	-11.1	0.9	-0.7	14.7
COC(=O)n1ccc(C(=O)Nc2ccccc2F)n1	9257	11.5	9.2	-4.9	2.1	-20.0	1.3
COc1ccc(C2(C)NC(=O)NC2=O)cc1OC (stereo unspecified)	3740	2.7	10.6	-2.0	0.9	0.1	3.0
O=C(CCc1nnc(CCCc2ccccc2)o1)NCCN1CCOC1=O	2570	7.2	7.8	-4.7	2.7	-21.4	4.5
Cc1c(Cc2ccccc2)c(=O)oc2c(C)c(OC(C)C(=O)N[C@@H](Cc3ccccc3)C(=O)O)ccc12 (stereo partly specified)	5877	·	·	-12.8	8.4	-20.6	0.4
Cc1cc(C)c(C(=O)COC(=O)c2ccc([N+](=O)[O-])o2)cc1C	4195	-0.3	11.3	-0.7	12.7	-36.9	54.0
COc1cccc(N2CCN(CC(=O)c3c[nH]c4ccc(OC)cc34)CC2C)c1 (stereo unspecified)	3807	1.3	15.2	5.7	1.3	-5.0	-9.8
COCC(=O)Nc1sc2c(c1C(=O)OC)CCC(C)C2 (stereo unspecified)	8470	8.8	7.2	11.5	6.1	-28.6	11.3
Cc1ccc(CNc2oc(-c3cccs3)nc2C#N)cc1	10073	20.6	10.2	0.1	3.3	-1.3	0.2
CCOc1ccc(CNC(=O)c2ccc3c(c2)N(CC)CCS3)cc1	5252	·	·	3.9	·	-43.6	·
CC(C)CN(C(=O)CN(C)CC(=O)Nc1ccccc1C#N)c1c(N)n(CC(C)C)c(=O)[nH]c1=O	3489	3.1	4.7	·	2.1	-5.7	1.7
CCCNS(=O)(=O)c1ccc(OCC(=O)N(C)Cc2ccccc2)cc1	3705	0.1	1.1	-6.5	3.6	-14.0	0.7
CC(Nc1cccc2ccccc12)C(=O)NN=Cc1ccccn1 (stereo unspecified)	·	-4.9	-3.4	·	6.5	·	-1.3
NC(=O)c1nn(CC(=O)Nc2ccc3c(c2)OCO3)cc1[N+](=O)[O-]	4468	5.4	4.3	·	3.9	-22.0	0.4

Looked up by structure from above:
SMILES	Autofluor counter	Mtb hypoxia inh	Mtb hypoxia inh growth	BJeLR viability	RN4220 kill	PrP 5UTR inh	Sa ugtP lethal
COc1cccc(N2CCN(CC(=O)c3c[nH]c4ccc(OC)cc34)CC2C)c1 (stereo unspecified)	3807	1.3	15.2	5.7	1.3	-5.0	-9.8
Cc1c(Cc2ccccc2)c(=O)oc2c(C)c(OC(C)C(=O)N[C@@H](Cc3ccccc3)C(=O)O)ccc12 (stereo partly specified)	5877	·	·	-12.8	8.4	-20.6	0.4

Following part:
SMILES	Autofluor counter	Mtb hypoxia inh	Mtb hypoxia inh growth	BJeLR viability	RN4220 kill	PrP 5UTR inh	Sa ugtP lethal
NS(=O)(=O)c1ccc(NC(=O)C2COc3ccccc3O2)cc1 (stereo unspecified)	·	6.6	10.7	-1.2	0.8	·	-0.6
O=C(CCc1nc2ccccc2c(=O)[nH]1)OCc1ccccc1F	10121	5.3	4.7	-12.6	5.3	-13.9	5.4
CCc1nnc(NC(=O)C2Cc3ccccc3CN2S(=O)(=O)c2cccs2)s1 (stereo unspecified)	4361	·	·	2.6	3.7	-42.7	-5.1
COc1cccc(C2NC(=O)NC(O)(C(F)(F)F)C2C(=O)c2cccnc2)c1OC (stereo unspecified)	22761*	13.3	4.3	3.3	6.9	-9.1	-12.4
CC(C)NC(=S)Nc1ccc2[nH]c(=O)[nH]c2c1	3555	4.7	11.6	3.6	2.9	-24.3	9.1
CC(C)(C)c1ccc(/C=N/n2cnnc2)cc1	4000	·	·	2.2	·	-21.7	·
O=c1cc(-c2ccco2)oc2ccc(Cl)cc12	·	1.8	9.4	1.5	-15.3	-26.0	-6.5
CC(C)n1nc(C(=O)NCCc2ccc(S(N)(=O)=O)cc2)c2ccccc2c1=O	4527	·	·	1.4	1.6	-11.3	4.6
COC(=O)CN(c1ccccc1C)S(C)(=O)=O	16004	·	·	-0.5	·	-26.2	·
COc1cccc(NC(=O)NCc2c(-c3ccccc3)noc2C)c1	4878	-0.3	1.2	-4.7	-3.1	-4.4	-2.5
O=C(Cc1c(C(=O)O)[nH]c2ccccc12)NC1CCCC1	4358	0.6	2.7	-6.7	6.1	-60.2	4.5
N#Cc1cc(C(=O)Cc2ccccc2)c[nH]1	4052	0.2	-3.4	-3.9	4.9	-10.3	4.5
NC(=Nc1ccc(Cl)cc1)c1ccccc1	4174	-6.6	-5.4	5.5	-5.9	-28.0	0.8
C=CCNC(=O)c1ccc2nc(-c3ccccc3)c(-c3ccccc3)nc2c1	3442	9.7	16.0	0.4	3.5	-17.1	11.1
O=C(NCC1OCCCN1S(=O)(=O)c1ccc(F)cc1)C(=O)NC1CCCC1 (stereo unspecified)	6036	5.2	0.5	-6.0	-0.9	-0.9	6.3

In the list so far, these contain a nitro group on carbon.
SMILES	Autofluor counter	Mtb hypoxia inh	Mtb hypoxia inh growth	BJeLR viability	RN4220 kill	PrP 5UTR inh	Sa ugtP lethal
Cc1cc(C)c(C(=O)COC(=O)c2ccc([N+](=O)[O-])o2)cc1C	4195	-0.3	11.3	-0.7	12.7	-36.9	54.0
NC(=O)c1nn(CC(=O)Nc2ccc3c(c2)OCO3)cc1[N+](=O)[O-]	4468	5.4	4.3	·	3.9	-22.0	0.4

Other results follow:
SMILES	Autofluor counter	Mtb hypoxia inh	Mtb hypoxia inh growth	BJeLR viability	RN4220 kill	PrP 5UTR inh	Sa ugtP lethal
Cc1cc(C(=O)NCCc2ccc(S(N)(=O)=O)cc2)c(C)o1	3276	5.3	-5.3	-9.7	2.9	-9.9	4.2
O=C(COC(=O)[C@@H]1CC(O)CN1S(=O)(=O)c1ccccc1[N+](=O)[O-])Nc1ccc2ccccc2c1 (stereo partly specified)	2476	·	·	5.5	·	-4.8	·
COc1ccccc1CNC(=O)c1n[nH]c2ccccc12	4656	7.0	7.3	-5.1	20.4	-39.1	12.7
CC(=O)c1c(C)nc2ccc([N+](=O)[O-])cc2c1-c1ccccc1	3936	-3.5	7.0	-1.8	1.4	19.4	4.4
COc1cc2c(cc1OC)CN(c1ncccc1[N+](=O)[O-])CC2	4631	8.1	-2.5	0.9	4.4	-41.2	-0.9
O=C1c2ccccc2N[C@@H]2C=CC[C@@H]2N1O	3642	1.2	8.9	·	1.1	-0.8	1.7
CCSc1nnc(C(N)Cc2ccccc2)o1 (stereo unspecified)	3369	12.8	3.2	-9.8	0.3	-45.9	-3.3
COc1cc2c(cc1OC)C(C)N(C(=O)c1cc3c(C)cc(C)cc3[nH]1)CC2 (stereo unspecified)	4850	11.0	-1.0	14.9	-0.4	-11.9	-0.8
COc1cccc(OCc2cc(C=NNc3ccc(C(=O)O)cc3)ccc2OC)c1	·	12.3	0.6	·	-11.3	·	8.1
CC1=Nc2ccccc2N=C(NC(=O)CSC(=S)N2CCCCC2)C1c1ccccc1 (stereo unspecified)	4403	6.8	1.2	-0.3	5.8	-11.1	6.8
COc1ccc2nc(NC(N)=NC(=S)Nc3ccc(C)c(C)c3)nc(C)c2c1	·	-3.2	8.7	·	10.5	·	-20.4
Cn1c(=O)cc(OCCCC(=O)NCc2ccc3c(c2)OCO3)c2ccccc21	4549	0.6	10.4	5.9	-12.1	-2.3	-5.5
Cc1occc1-c1nnc(SCC(=O)c2cc3ccccc3oc2=O)o1	3556	0.1	-6.2	-6.1	6.7	-17.7	-13.7
O=C(N/C(=C\c1ccco1)C(=O)N1CCCC1)c1cccs1	8140	6.9	1.2	-3.8	4.4	-32.7	15.5
C[C@@H]1CN([C@@H](C)CO)C(=O)c2cccc(NC(=O)c3nc4ccccc4s3)c2O[C@@H]1CN(C)CC1CC1	3676	1.9	6.6	·	0.1	-20.0	-5.4
CCOc1ccc(C(=O)NCCNC(=O)c2ccc(OCC)cc2)cc1	3510	8.5	0.5	3.1	2.1	-19.2	0.2
CC(Sc1nc(N)cc(=O)[nH]1)C(=O)NNC(=O)c1cccc(Cl)c1 (stereo unspecified)	8725	-0.7	2.4	·	2.4	-16.3	1.7
COc1cccc(-c2cc(C(F)(F)F)nc(-n3cncn3)n2)c1	25001*	11.1	3.4	-6.9	6.6	-6.6	3.3
Cn1c(CCC(=O)Nc2ccccc2F)nnc1SCC(=O)Nc1ccccc1Cl	3837	7.8	10.8	6.7	14.1	-8.2	5.3
COc1cc(C(=O)N2C(=O)CCC2=O)cc(OC)c1OC	3970	-11.7	0.8	-10.9	-0.3	-24.0	2.9
COc1ccccc1-n1c(=O)c2c3c(sc2n2c(SC)nnc12)CCC3	3270	1.5	4.2	-0.4	5.5	-20.0	-3.2
Cc1csc(NC(=O)Cn2nc(C)c([N+](=O)[O-])c2C)n1	4228	16.4	7.4	-5.1	4.4	-22.8	3.4
S=c1[nH]nc(C2CCCCC2)n1N=C/C(Cl)=C\c1ccccc1	·	-10.2	-1.2	·	-0.9	·	0.8
O=S(=O)(/N=C(\c1ccccc1)N1CCOCC1)c1ccc(Cl)cc1	2083	·	·	6.0	·	-5.0	·
CCC(C(=O)NCCC1=CCCCC1)c1ccccc1 (stereo unspecified)	2206	10.9	4.5	1.3	5.7	-9.8	3.7
COc1ccccc1NC(=O)CN(c1ccccc1OC)S(=O)(=O)c1ccccc1	3492	5.3	1.0	-7.8	2.7	1.3	2.1
C/C(=N\NC(=S)NC(C)C)c1ccccc1	3584	·	·	2.7	·	-6.0	·
COc1ccc2[nH]c3c(c2c1)CCN1C(=O)N([C@@H](C)C(=O)NCc2ccco2)C(=O)[C@]31C	5071	·	·	3.9	-1.5	-21.4	4.6
O=C1NC(=S)NC1=Cc1ccc(Cl)cc1Cl	3009	22.9	8.9	·	8.8	-1.3	11.9
CNC(=S)NNC(=O)COc1ccccc1C	5570	-0.2	7.4	-4.4	-1.3	-17.3	-8.3
Cc1cccc(NC(=O)C2CCCN(S(=O)(=O)c3cccs3)C2)c1C (stereo unspecified)	3693	-3.5	13.6	-0.7	3.1	-16.2	-1.8
